Compound activity from PubChem.
Lassa entry inh – blocks Lassa virus binding to or entry into cells; Lassa virus pseudotype entry inhibition, cell reporter; control for the full effect not named in the record; Potency, µM (titrated, usually from 37.9 µM), for the others: at the top dose activity change, negative = inhibition, actives largely listed as inhibitors; 300,000 compounds, 1.2% hits; AID 540256; active means well fitted inhibition curve with a large enough effect; inconclusive means small, poorly fitted or top-dose-only effect, or effect the other way; inactive means flat fitted curve, though single readings scatter; tested in HEK293 cells; also: % is scaled to controls: 0 for no effect and ±100 for the full control effect; nearly all actives have a fitted effect of over 50% in size; luciferase read-out
SARS PLpro yeast – inhibitors of SARS-CoV papain-like protease in yeast. S. cerevisiae expressing SARS-CoV PLpro, growth rescue; control for the full effect not named in the record. Potency, µM (doses to about 32.9 µM), inactives show top-dose activity, positive = growth rescue. 330,000 compounds, 0.19% hits; active means well fitted rising curve with a large enough effect; inconclusive means small, poorly fitted or top-dose-only effect; inactive means no such curve, though single readings can be large or run the other way; also: 0% is about no effect; nearly all actives have a fitted effect of over 55% in size; growth read by luminescence after 48 h
NS1 function inh – inhibitors of influenza NS1 protein function | S. cerevisiae slowed by influenza A NS1, growth recovery by OD600 | Potency, µM (series often up to 46.1 µM), for the others: at the highest dose activity, positive = more growth | 270,000 compounds, 0.4% hits | AID 2326; active means well fitted rising curve with a large enough effect; inconclusive means small, poorly fitted or top-dose-only effect; inactive means no such curve, though single readings can be large or run the other way; also: nearly all actives have a fitted effect of over 50% in size
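S. cerevisiae expressing influenza A NS1, grown in glucose, washed, then diluted 1:100 into pH 6.0 -URA galactose medium with 23 nl compound. Growth recovery read as OD600; NS1-free strain serves as control.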
Cruzain noTriton – cruzain (T. cruzi) inhibition without detergent. purified cruzain, Z-FR-AMC fluorescence, no detergent. 200,000 compounds, 2.3% hits. AID 1476. Potency, µM, without a hit: max response, negative = inhibition, hits mostly inhibitors. P25779;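 also: plate controls were enzyme without inhibitor for no effect and buffer without enzyme for full effect; nearly all actives have a fitted effect of over 40% in size; top concentration of the series not given in the record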
Target sequence (P25779 123-467 limits assumed): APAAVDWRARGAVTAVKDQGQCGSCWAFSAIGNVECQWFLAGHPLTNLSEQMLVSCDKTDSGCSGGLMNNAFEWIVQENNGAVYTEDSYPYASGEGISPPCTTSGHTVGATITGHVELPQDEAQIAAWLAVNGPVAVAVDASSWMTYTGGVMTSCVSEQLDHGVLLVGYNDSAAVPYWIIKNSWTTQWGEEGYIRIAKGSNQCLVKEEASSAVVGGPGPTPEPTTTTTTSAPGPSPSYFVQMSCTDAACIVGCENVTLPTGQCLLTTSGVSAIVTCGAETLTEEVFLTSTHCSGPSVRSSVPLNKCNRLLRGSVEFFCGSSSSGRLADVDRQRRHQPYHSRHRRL
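Purified cruzain at 1.5 nM, pre-incubated 15 min with compound at room temperature in 100 mM sodium acetate pH 5.5, 5 mM DTT, 0.00005% Triton X-100. Reaction started with 2 uM Z-FR-AMC; AMC fluorescence increase over 60 s gives rate.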
2A StopGo – FMDV 2A StopGo reporter, luciferase signal; human cells with a luciferase reporter of 2A StopGo recoding; control for the full effect not named in the record; Potency, µM (series often up to 57.9 µM), for the others: at the top dose signal change, negative = less light; 410,000 compounds, 1.2% hits; AID 1159524; active = well fitted falling curve with a large enough effect; inconclusive = small, poorly fitted or top-dose-only effect; inactive = no such curve, though single readings can be large or run the other way; tested in HEK293T cells; also: % is scaled to controls: 0 for no effect and ±100 for the full control effect; nearly all actives have a fitted effect of over 45% in size; luciferase light after 4 h
MARV entry inh – blocks Marburg virus binding to or entry into cells; Potency, µM (series often up to 37.8 µM), for inactives: at the highest dose activity change, negative = inhibition, hits mostly inhibitors; 300,000 compounds, 1.8% hits; AID 540276; Marburg virus pseudotyped entry inhibition, cell reporter; control for the full effect not named in the record; about a third of the inactives were read at about 46 µM; active = well fitted inhibition curve with a large enough effect; inconclusive = small, poorly fitted or top-dose-only effect, or effect the other way; inactive = flat fitted curve, though single readings scatter; tested in HEK293 cells; about a fifth of its hits are not listed in these tables; also: % is scaled to controls: 0 for no effect and ±100 for the full control effect; luciferase read-out
Cruzain Triton – inhibitors of Trypanosoma cruzi cruzain with detergent; AID 1478; purified cruzain, Z-FR-AMC fluorescence, 0.01% Triton; P25779; 200,000 compounds, 0.43% hits; Potency, µM, without a hit: max response, negative = inhibition, most hits filed as inhibitors;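 also: plate controls were neutral wells for no effect and buffer without enzyme for full effect; nearly all actives have a fitted effect of over 40% in size; top concentration of the series not given in the record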
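Purified cruzain (1.5 nM final) was preincubated with compounds for 15 min at room temperature in 100 mM sodium acetate pH 5.5, 5 mM DTT, 0.01% Triton X-100. Reaction started with 2 uM Z-FR-AMC; AMC fluorescence change over 60 s gave activity.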
RE007 growth inh – less growth of the S. pombe RE007 Vpr strain. Potency, µM (titrated, usually from 92.2 µM), inactives show at the highest dose activity change, negative = less growth. 360,000 compounds, 0.21% hits. AID 651644. S. pombe RE007 Vpr strain, BacTiter-Glo ATP luminescence, 24 h; control for the full effect not named in the record; active = well fitted falling curve with a large enough effect; inconclusive = small, poorly fitted or top-dose-only effect; inactive = no such curve, though single readings can be large or run the other way;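 also: % is scaled to controls: 0 for no effect and ±100 for the full control effect; nearly all actives have a fitted effect of over 50% in size; the assay follows cell death caused by Vpr and the record does not say whether a fall means rescue or toxicity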
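Fission yeast strain RE007, carrying one chromosomally integrated HIV-1 vpr copy, was seeded at OD 0.01 in PMG+AL medium with 23 nL pinned compound. After 24 h at 30 °C and 99% humidity, viability was read by BacTiter-Glo luminescence.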
* hit, by the source's call; ? = inconclusive; · = no result given; & = joins results of further samples; [ ] = dose if it differs, or a comment. Unless noted, calls follow the shape of the dose curve; as a rule, active = well fitted curve in the direction sought with a large enough effect; inconclusive = small, poorly fitted or top-dose-only effect, or another doubt; inactive = no such curve, though single readings can be large; an effect the other way counts as inactive or inconclusive. Potency is read from the fitted curve at half-maximal effect. This is a random part of the collection; overall some 4.8% were active at least once.

SMILES	Lassa entry inh	SARS PLpro yeast	NS1 function inh	Cruzain noTriton	2A StopGo	MARV entry inh	Cruzain Triton	RE007 growth inh
Cc1ccc2nc(Cl)c3cc(C(=O)NC4CCCCC4)sc3c2c1	-7%[46.1 µM]	·	·	-3%	-7%	?	-1.0%	·
CC1CCCCN1S(=O)(=O)c1ccc(-n2cnnn2)cc1 (stereo not drawn)	11%	-1%	-6%	·	9%	-2%[46.1 µM]	·	12%
CCC(=O)N1CCc2cc(Br)cc(S(=O)(=O)N3CCN(c4ccccc4)CC3)c21	-2%[46.1 µM]	·	·	4%	16%	0%[46.1 µM]	0.9%	·
CSc1nsc(SCC(=O)Nc2ccccn2)n1	23%	4%	-6%	0%	32%[activator]	25%	0.6%	12%
Cc1c(C(=O)Nc2ccc(S(=O)(=O)N(C)C3CCN(C)CC3)cc2)oc2ccccc12	?	-10%	·	·	-23%	-102%	·	8%
COc1ccc(NC(=O)C2CCN(S(=O)(=O)c3cn(C)nc3C)CC2)cc1	0%[46.1 µM]	2%	17%	·	-14%	-1%[46.1 µM]	·	-9%
CN(NC(=O)c1ccco1)c1nc2ccccc2nc1C(F)(F)F	10%[46.1 µM]	-4%	·	·	14%	-1%[46.1 µM]	·	5%
CCCCN1C2CCCC1CC(NC(=O)c1cccc(Cl)c1)C2 (stereo not drawn)	·	0%	2%	·	-6%	·	·	-2%
CNC(=O)c1ccc(NC(=O)CCNC(=O)Nc2ccccc2)cc1	0%[46.1 µM]	-5%	·	·	-1%	?	·	-14%
Cc1ccc(C)n1-c1ccncc1	-6%	2%	10%	-4%	2%	-21%	2.0%	-17%
COc1ccc2c(COC(=O)c3n[nH]c4ccccc34)cc(=O)oc2c1	6%	5%	4%	7%	31%[activator]	-27%	-6.8%	-2%
COc1ccc(Cn2cc(C(=O)c3ccccc3)c(=O)c3cc(OC)ccc32)cc1	-6%	-12%	16%	-8%	55%[activator]	-9%	-6.1%	-5%
CCc1nc2ccccc2c(=O)n1-c1cccc(OC)c1	6%	·	-17%	2%	·	14%	1.8%	2%
Cc1cccc(CNC(=O)c2cccc(NC(=O)N3CCSc4ncccc43)c2)c1	6%[46.1 µM]	·	·	-8%	0%	·	-19%	·
O=c1oc2ccccc2c2c1nc(C(F)(F)F)n2-c1ccccc1	-11%	25%	-50%	-11%	-2%	-23%	0.3%	-2%
CCOC(=O)CSc1nnc(CNC(=O)c2cccc(C)c2)n1-c1ccccc1OC	19%	?	-1%	0%	-21%	21%	3.6%	-5%
CCOC(=O)C1CCCN(C(=O)Cn2sc3nc(C)cc(C)c3c2=O)C1 (stereo not drawn)	·	-14%	5µM*	-15%	-7%	·	-3.5%	?
CCOC(=O)c1c(NC(=O)c2cc(C)on2)c2cc([N+](=O)[O-])ccc2n1C	·	1%	1%	·	19%	·	·	12%
CCn1c(CNC(=O)COc2ccc(C(C)C)cc2)nnc1SCC(=O)Nc1ccccc1C(C)C	-10%	-5%	2%	?	·	1%	-2.4%	-6%
O=C(CNC(=O)c1cnccn1)Nc1ccc(F)c(F)c1F	4%	5%	7%	-1%	-12%	18%[46.1 µM]	-1.2%	-4%
Cc1cc(=S)n(-c2ccccc2)n1C	-2%	-2%	-1%	-6%	-7%	27%[46.1 µM]	0.2%	-12%
Cc1ccc(-c2csc3ncn(/N=C/N(C)C)c(=O)c23)o1	8%	-6%	1%	0%	-23%	3%	-6.2%	0%
COC(=O)c1nn(-c2cccc(C(F)(F)F)c2)c(=O)cc1Sc1ccccn1	-16%	7%	-1%	5%	1%	19%	-0.2%	-19%
O=[N+]([O-])c1cc2c(cc1/C=N\NS(=O)(=O)c1ccccc1)OCO2	-28%	7%	7%	-7%	·	?	-2.5%	-15%
Clc1ccc(Oc2cnns2)c(Cl)c1	8%	-8%	8%	8%	-25%	5%	0.7%	0%
Cc1nc2sc(C(c3ccccc3)N3CC(C)OC(C)C3)c(O)n2n1 (stereo not drawn)	-8%	6%	2%	2%	28%	3%	6.8%	11%
COc1ccc(OC)c(NC(=O)CSc2nnc(-c3ccco3)n2-c2ccccc2)c1	-18%	-4%	-39%	10%	·	-13%	-8.5%	11%
O=C(c1cnn2c(C(F)(F)F)cc(-c3ccco3)nc12)N1CCc2ccccc2C1	?	-9%	-79%	-8%	-13%	?	-13%	15%
CN1CCN(c2ccc(NC(=O)COc3ccccc3)cc2Cl)CC1	-3%[46.1 µM]	3%	15%	·	12%	?	·	11%
CCC(=O)N1CCc2cc(S(=O)(=O)CCC(=O)N3CCN(c4ccc(C(C)=O)cc4)CC3)ccc21	9%[46.1 µM]	3%	6%	-4%	?	24%&24%[46.1 µM]	-2.2%	-1%
CCOCc1nnc(NC(=O)CCS(=O)(=O)Cc2ccccc2)s1	-10%	-1%	4%	·	3%	19%[46.1 µM]	·	3%
CC(C)N1CCN(Cc2ccc(Oc3ncccn3)cc2)CC1CCO (stereo not drawn)	·	-1%	6%	·	-23%	·	·	5%
C=CCn1c(N2C(=O)CC(Cc3ccccc3)C2=O)nc2ccccc21 (stereo not drawn)	0%	-3%	-44%	-2%	-5%	-8%	2.2%	9%[3.69 µM]
Cc1cc(C)n2nc(C(=O)N/N=C/c3cccc(Cl)c3)nc2n1	17%[46.1 µM]	-1%	-4%	·	12%	17%[46.1 µM]	·	4%
Cc1ccc(S(=O)(=O)N2CCN(C(=O)CCC(=O)NC3CCCc4ccccc43)CC2)cc1 (stereo not drawn)	2%	10%	-3%	21%	-27%	13%&13%	1.9%	3%
CCOc1ccc(N2CC(C(=O)NCc3ccc4c(c3)OCO4)CC2=O)cc1 (stereo not drawn)	·	-1%	-1%	·	13%	20%[46.1 µM]	·	3%
CC(NC(=O)Nc1ccc2c(c1)OCO2)c1ccncc1 (stereo not drawn)	2%	10%	-6%	·	15%	1%[46.1 µM]	·	17%
Cc1nnc(SCC(=O)Nc2cccc(S(N)(=O)=O)c2)n1-c1ccccc1	·	1%	1%	·	-7%	-3%[46.1 µM]	·	-7%
O=C(NC(=S)/C(=C1\CCCCCN1)[N+](=O)[O-])c1ccccc1	?	-2%	·	·	13µM*	?	·	-14%
CN(C)S(=O)(=O)c1ccc(NC(=O)N2CCN(c3ccccc3)CC2)cc1	-9%	5%	-4%	-29%	0%	?	3.6%	4%
Cn1c(=O)c2c(=O)cc(NNC(=O)CC#N)[nH]c2n(C)c1=O	7%	0%	5%	·	-7%	14%	·	1%
Cc1cccc(CSc2nc3sc(C)c(C)c3c(=O)n2Cc2ccco2)c1	4%	7%	-3%	?	-2%	15%	4.1%	-16%[3.69 µM]
O=C(c1ccc2c(c1)OCO2)N1CCCc2ccccc21	11%	1%	-12%	-5%	-7%	0%	3.6%	1%
COc1ccc(C(CC(=O)O)NC(=O)COc2ccc(C)cc2)cc1OC (stereo not drawn)	8%	-14%	6%	2%	-24%	11%	0.9%	22%
CCOC(=O)CSc1nnc(Cn2c(=O)sc3ccccc32)n1C	12%	2%	-5%	4%	11%	3%	-1.0%	-3%
O=C(COc1ccc([N+](=O)[O-])cc1)Nc1ccccc1C(=O)NC1CC1	?	-3%	·	·	-3%	-7%[46.1 µM]	·	9%
COCCNC(=S)N(CCN(C)C)Cc1cc2cc3c(cc2[nH]c1=O)OCO3	·	-3%	-9%	·	-4%	·	·	-4%
CC(=O)/C(=N\Nc1ccccc1)Oc1ccc(Br)cc1	-5%	·	·	·	1%	7%[14.2 µM]	·	-3%
CCCCNC(=O)CCCN1C(=O)CCn2nc(-c3cccn3C)cc21	26%[46.1 µM]	·	·	1%	7%	·	-1.0%	·
O=C(C1=C(O)C(=O)N(CC2CCCO2)C1c1ccccc1F)c1ccco1 (stereo not drawn)	0%	-1%	5%	·	9%	-2%[46.1 µM]	·	-7%
CCOC(=O)C1C(=O)NC(N2CCOCC2)=NC1c1ccco1 (stereo not drawn)	-2%	1%	-2%	-8%	-11%	?	0.5%	2%
CCOC(=O)c1c(C)cc(C)[nH]c1=O	5%	1%	2%	·	2%	-2%[46.1 µM]	·	21%
COc1cccc2c1cc1c(=O)n(CC(=O)NCc3ccccn3)nc(C)n12	·	0%	26%	·	-5%	·	·	8%
COC(=O)c1cn(NC(=O)Cc2ccccc2Br)c(=O)c2ccccc12	12%	5%	·	·	-6%	10%	·	14%
CC(=O)Nc1c(C)nn(-c2ccccc2)c1N1CCC(C(=O)Nc2ccc(F)cc2Cl)CC1	6%[46.1 µM]	·	·	?	-6%	·	2.0%	·
CC1(C)CC(=O)C=C(NCCN2CCN(C(=O)Nc3ccccc3)CC2)C1	17%	0%	-5%	10%	32%	-4%	3.1%	0%
COCCNC(=O)/C(C#N)=C/c1c(N2CCN(c3cccc(Cl)c3)CC2)nc2c(C)cccn2c1=O	·	-3%	3%	·	-29%	·	·	-3%
CCCSCCCNC(=O)c1ccc(C)c(NC(=O)C2=C(C)OCCS2)c1	·	-2%	-1%	·	-2%	·	·	18%
COc1ccc(S(=O)(=O)n2nc(-c3cc(OC)c(OC)c(OC)c3)cc2N)cc1OC	·	-23%	-25%	?	0%	·	-10%	3%
CC1CN(c2nc3ccccn3c(=O)c2/C=C(\C#N)C(N)=O)CC(C)O1 (stereo not drawn)	14%[46.1 µM]	2%	1%	·	-7%	-1%[46.1 µM]	·	-2%
COc1ccccc1OCC(=O)Nc1c(C(=O)c2ccc(F)cc2)oc2ccccc12	1%[46.1 µM]	·	·	-1%	-16%	?	-0.7%	·
